# Bioassay records (PubChem)
# HPGD inh – inhibitors of human 15-hydroxyprostaglandin dehydrogenase (HPGD). purified HPGD, NADH fluorescence kinetic, PGE2 substrate. Potency, µM, inactives show at the top dose activity change, negative = inhibition, usual class: inhibitors. 150,000 compounds, 4.3% hits; active = well fitted inhibition curve with a large enough effect (not every such curve was filed as active); inconclusive = small, poorly fitted or top-dose-only effect, or another doubt; inactive = no such curve, though single readings can be large or run the other way;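 also: top concentration of the series not given in the record; plate controls included wells without enzyme; inactives centre near -10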
# Target sequence (P15428 whole entry, looked up): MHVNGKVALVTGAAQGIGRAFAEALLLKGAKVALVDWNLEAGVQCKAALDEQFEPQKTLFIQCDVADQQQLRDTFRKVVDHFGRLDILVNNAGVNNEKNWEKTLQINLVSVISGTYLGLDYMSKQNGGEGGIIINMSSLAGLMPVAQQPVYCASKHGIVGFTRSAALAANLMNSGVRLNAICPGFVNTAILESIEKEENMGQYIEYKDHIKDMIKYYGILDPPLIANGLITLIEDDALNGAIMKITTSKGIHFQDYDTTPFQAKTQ
#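 20 nM HPGD preincubated 15 min at room temperature with compound in 50 mM Tris-HCl pH 8, 0.01% Tween 20. Started with 1 mM NAD+ and 30 uM prostaglandin E2; NADH fluorescence (360/450 nm) read 5 times over 30-s intervals, last minus first.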
# * = called active by the depositor; ? = inconclusive; & = joins results of further samples. % is scaled to controls: 0 for no effect and ±100 for the full control effect; potency is read from the fitted curve at half-maximal effect.
compound	HPGD inh
CCc1nnc(NC(=O)c2ccc(NS(=O)(=O)c3ccccc3)cc2)s1	?
CCOC(=O)C(C)Sc1ccc2nnc(-c3ccc(F)cc3)n2n1 (stereo not given)	?
CCC1CCCCN1CCNS(=O)(=O)c1ccc2c(c1)oc(=O)n2C (stereo not given)	-6%
COc1cc(C(=O)N2CCN(C(=O)Cc3ccccc3)CC2)cc(OC)c1OC	-14%
CCCNc1nc(-c2ccccc2)c(C(=O)OCC)cc1C#N	?
Cc1ccc(N=Cc2ccc(N(C)C)cc2)cc1	-15%
Cc1cccc(NC(=S)N2CCN(c3cc(C)ccc3C)CC2)c1	-8%
COc1cc(/C=C/C(=O)NC(C)(C)C)ccc1OCc1ccccc1	?
CCC(=O)Nc1cccc(NC(=O)CSc2nnc(-c3ccc(NS(C)(=O)=O)cc3)n2CC)c1	-15%
Cc1ccc(/C=C2/NC(=O)N(Cc3ccccc3)C2=O)o1	25µM*
CCCCC(CC)CNC(=O)c1[nH]c(C)c(C(C)=O)c1C (stereo not given)	-3%
O=S1(=O)CCN2C(=N1)Sc1c2ccc2c1CCCC2	-14%
Cc1cc(C)n2c(SCCC(C)C)nnc2n1	-23%
CSc1nc2ccc(S(=O)(=O)Nc3c(C)n(C)n(-c4ccccc4)c3=O)cc2s1	-7%
COc1ccc(OC)c(NC(=O)CCNS(=O)(=O)c2ccc3c(c2)oc(=O)n3C)c1	-1%
CCOc1ccc(NC(=S)Nc2ccc(OC(F)(F)F)cc2)cc1	-9%
CC1(C)OC(=O)C(=CNCC(O)c2ccccc2)C(=O)O1 (stereo not given)	-18%
O=C(Nc1c(C(=O)Nc2cccc(F)c2)oc2ccccc12)c1ccc2c(c1)OCO2	?
NC(N)=N/N=C/c1ccc(OCc2ccc(Cl)cc2Cl)cc1	-25%
CCCCS(=O)(=O)NC1=NCN(CC)CN1	-3%
Cn1c(NC(=O)C[n+]2cc(-c3ccc(Cl)c(Cl)c3)n3c2CCC3)cc(=O)n(C)c1=O	2%
COc1c(C)cccc1C(=O)Nc1cc(Cl)ccc1N1CCOCC1	?
Cn1nnc(NC(=O)COc2ccc(C3CCCCC3)cc2)n1	-5%
Cc1csc(NC(=O)Cc2c[nH]c3ccccc23)n1	-6%
COc1ccc(Oc2coc3c(CN(C)C)c(O)ccc3c2=O)cc1	?
CCCCC1(COC(=O)CCC(=O)O)C(=O)N(c2ccccc2)N(c2ccccc2)C1=O	-8%&-10%
CCNC(=O)NC(=O)C(C)OC(=O)c1cc(S(=O)(=O)N2CCCCCC2)ccc1OC (stereo not given)	-10%
O=C(Cn1c(=O)n(Cc2ccccc2)c(=O)c2ccccc21)NCc1ccco1	-10%
CC(C)(C)CC(C)(C)c1ccc(OCCO)cc1	0%
S=C(NCC1CCCCC1)Nc1ccc(Oc2ccccc2)cc1	-22%

compound	HPGD inh
COC(=O)c1ccc(CO/N=C(\NC(C)=O)c2nonc2NC(C)=O)cc1	-3%
CCCCCCCCCCCCCCC(C(=O)OC)C(O)(CC(=O)OC)C(=O)OC (stereo not given)	-2%
COC(=O)C(C(=O)OC)N1C(=O)CCC1=O	-2%
O=C1NC(=NCc2ccccc2)S/C1=C/c1ccc(O)cc1	2.8µM*
CCC(C)NS(=O)(=O)c1ccc(S(=O)(=O)N2CC=C(c3ccc(F)cc3)CC2)cc1 (stereo not given)	?
COc1cccc(N2CCN(c3c4c(nc5ncnn35)CCC4)CC2)c1	-10%
CCCCNC(=O)CCSc1ccc(C)cc1	?
COc1ccc(/C=N/NC(=O)CCn2cnc(-c3ccccc3)c2-c2ccccc2)cc1OC	-7%
COc1cc(SC)ccc1C(=O)NC1CCCCC1	22µM*
COc1ccc(C(=O)Cn2nnc(-c3ccc(N4CCOCC4)cc3)n2)cc1OC	?
CCOC(=O)c1nnn(-c2nonc2-c2ccccc2)c1C	-1%
Cc1ccc(C(=O)N2CC(=O)Nc3ccc(F)cc3C2c2ccc(F)cc2)cc1[N+](=O)[O-] (stereo not given)	-13%
COC(=O)c1ccc(NC(=O)CN2C(=O)C3C4C=CC(C4)C3C2=O)cc1 (stereo not given)	20µM*
Cc1cc(C)n2c(Br)c(CSc3nc4ccccc4o3)nc2n1	?
CCn1c(C)nc2cc(S(=O)(=O)C(F)(F)F)ccc21	-9%
N#CC1=C(N)OC2=C(CCC/C2=C/c2ccoc2)C1c1ccoc1 (stereo not given)	?
Cc1cc(C)nc(SCC(=O)Nc2ncc(C(F)(F)F)cc2Cl)n1	-6%
CCOC(=O)Cc1csc(NS(=O)(=O)c2ccc(Cl)cc2)n1	-10%
COC(=O)CSc1nc(SCc2ccc(C)cc2)nc2c1CCCC2	-10%
COc1ccc(CNC(=O)Nc2cccc(C(F)(F)F)c2)cc1OC	-22%
CCC(C)NC(=O)CSc1nc2ccc(N3CCOCC3)cc2c(=O)n1CCc1ccccc1 (stereo not given)	-25%
CC(=O)C1(C)N(O)C(C)(C)C(c2ccco2)=[N+]1[O-] (stereo not given)	-6%
CNC(=O)/C(C#N)=C/c1c(N(Cc2ccccc2)Cc2ccccc2)nc2c(C)cccn2c1=O	-16%
O=C1NC(=S)/C(=C\c2ccc(-c3ccccc3Cl)o2)S1	16µM*
Cc1ccc(CNC(=O)CSc2nc3n[nH]c(C)c3c(=N)n2-c2cccc(C)c2)cc1	-27%
CCCn1c(SCC(=O)N2CCc3ccccc32)nnc1-c1ccncc1	-15%
COc1cc(/C=N/O)cc(Br)c1OS(=O)(=O)c1ccc(C)cc1	-24%
COC(=O)C1=C(C(=O)OC)[C@@H]2N(Cc3ccccc3)c3ccccc3[C@@]23C[C@@H](C(=O)OC)N(C(=O)c2cccs2)C3=N1	1%
CC(=O)Nc1ccc(Oc2ccc(-c3noc(C)n3)cc2)cc1	7.9µM*
O=C(O)CCC(=O)Nc1ccc(Sc2ccc([N+](=O)[O-])cc2)cc1	-20%

compound	HPGD inh
COc1ccc(NC(=O)CSC2CCCCC2)cc1	-15%
Cc1cc(N/N=C/c2ccc(O)cc2O)nc(-n2nc(C)cc2C)n1	-12%
COc1ccc(CC(=O)Nc2ccc(S(=O)(=O)N(C)C)cc2)cc1OC	-11%
COc1ccc(-c2cc(-c3ccccc3)c(C#N)c(SCC(=O)Nc3ncc(C)s3)n2)cc1	?
CC(C)=C1C2CCC1C(C(=O)Nc1sc(C)c(-c3ccc(C(C)C)cc3)c1C(N)=O)C2C(=O)O (stereo not given)	-9%
COc1cc(OC)cc(C(=O)Nc2nnc(NC(=S)Nc3ccccc3)s2)c1	-20%
COC(=O)C1=C(C)N(c2ccc(Br)cc2)C(=O)/C1=C\c1ccco1	-15%
Cc1cnc(C(=O)Nc2nnc(C)s2)cn1	-13%
CC(NS(=O)(=O)c1ccccc1)C(c1cccs1)N1CCN(C)CC1 (stereo not given)	-7%
CS(=O)(=O)N(CC(=O)NCC1CCCO1)c1ccc(Cl)c(Cl)c1 (stereo not given)	-12%
COC(=O)c1ccc(CSc2nnc(C)s2)cc1	-17%
CC(C)CCSc1nc2c(c(=O)[nH]c(=O)n2C)n1CCCc1ccccc1	?
COC(=O)CSc1nnc(SCc2ccc(OC)cc2)s1	-15%
CCOC(=O)C1=C(N)Oc2cc(O)ccc2C1c1cccnc1 (stereo not given)	-11%
CCOc1ccc2nc(NC(=O)c3cc([N+](=O)[O-])ccc3N3CCOCC3)sc2c1	-5%
C=CCn1c(SC(C)C(=O)NCCC2=CCCCC2)nc2ccccc2c1=O (stereo not given)	-7%
CCN(CC)S(=O)(=O)c1ccc(-c2nnc(SCc3nnc(-c4ccc(C)cc4)o3)n2CC)cc1	-6%
COc1ccc(OC)c(NC(=O)c2c3c(nc4ccccc24)CCC3)c1	-5%
CCn1cc(C(=O)NC2CCCCC2C)c(=O)c2ccc(C)nc21 (stereo not given)	-11%
CN(C)c1cccc(C(=O)NCC2CCCO2)c1 (stereo not given)	-16%
O=C(CN1CCOCC1)NCc1ccccc1	-11%
Cn1c(=O)c2c(nc(CN3CCN(c4ccccc4)CC3)n2Cc2ccccc2F)n(C)c1=O	-20%
Cc1ccc(SCC(=O)NCc2ccncc2)cc1	-20%
Cc1cccc(N2CCN(CC(=O)NCC3CCCCC3)CC2)c1C	1%
COc1ccc(C2CC(=O)C3=C(C2)NC(C)=C(C(=O)Nc2ccccc2C)C3c2coc3ccc(C)cc3c2=O)cc1OC (stereo not given)	-18%
Cc1cc(C)n(C(=O)c2ccc(C)o2)n1	-2%
CCCN(CCC)c1ncnc2c1cnn2-c1ccc(OC)cc1	-11%
CCOC(=O)Cc1csc(NC(=O)CSc2ncnc3c2cnn3-c2ccc(OC)cc2)n1	?
Cc1ccc(Cl)cc1N1CCN(C(=O)Cc2ccc(-n3c(=O)[nH]c4ccsc4c3=O)cc2)CC1	-8%
CCCCOc1ccc(C(C)NC(=O)CCS(=O)(=O)Cc2ccc(C)cc2)cc1 (stereo not given)	-10%

# Overlap with the part before: 2 entries; new compounds follow.
compound	HPGD inh
Cc1ccc(Cl)cc1N1CCN(C(=O)Cc2ccc(-n3c(=O)[nH]c4ccsc4c3=O)cc2)CC1	-8%
CCCCOc1ccc(C(C)NC(=O)CCS(=O)(=O)Cc2ccc(C)cc2)cc1 (stereo not given)	-10%
O=C(CSc1nnc(-c2ccccc2)o1)NC1CCCCC1	-8%
O=C(Nc1cccc(F)c1)N1CC[C@@]2(CCCN(C(=O)c3cccc(F)c3)C2)C1	-4%
CC(NC(=O)Nc1ccccc1O)(C(F)(F)F)C(F)(F)F	-22%
Cc1[nH]n(-c2ccc([N+](=O)[O-])cc2)c(=O)c1C=NCCN1CCN(C(=O)c2ccccc2)CC1	-18%
COc1cc(CNC(=O)CCCC/C=C/C(C)C)ccc1O	-24%&-9%&-6%&-10%
CCOC(=O)C1CCCN(C(=O)c2ccc(CS(=O)(=O)c3ccc(Br)cc3)o2)C1 (stereo not given)	-8%
CCCC(=O)N(Cc1cc2cccc(C)c2[nH]c1=O)c1ccccc1OC	-7%
CC(NC(=O)COC(=O)Cc1ccsc1)C1CC2CCC1C2 (stereo not given)	28µM*
CC(NC(=O)c1cccnc1)C(c1cccs1)N1CCOCC1 (stereo not given)	-5%
Cn1ncc(Cl)c1C(=O)NCc1ccc(Cl)cc1	-21%
Cc1nonc1OCCNc1ccc([N+](=O)[O-])cc1	-14%
Cc1cc(C)c2[nH]c(=O)c(C(c3nnnn3C(C)(C)C)N(Cc3ccco3)CC3CCCO3)cc2c1 (stereo not given)	-27%
CN(C)S(=O)(=O)c1ccc2c(c1)/C(=C/c1cc3c([nH]1)CCCC3)C(=O)N2	-10%
Cc1cc(=O)n2[nH]c(-c3ccc(Cl)cc3)cc2n1	?
CC(N)=O	-29%
O=C(Cn1c(/C=C/c2ccccc2)nc2ccccc21)Nc1ccc(F)cc1	?
Cc1ccc(NC2(C#N)C(=O)Nc3ccccc32)cc1 (stereo not given)	-20%
CC(=O)Nc1cccc(OCC(=O)NS(=O)(=O)c2ccc(Cl)cc2)c1	-6%
O=C(CSc1nnc2scc(-c3ccc(Cl)cc3)n12)NCc1ccc2c(c1)OCO2	-7%
COC(=O)c1ccc(Oc2nc(NC(C)C)nc(SC)n2)cc1	-12%
O=C(c1cc(C(F)(F)F)cc(C(F)(F)F)c1)N1CCC2(CC1)CN(Cc1ccncc1)C2	-7%
CNC(=O)CN1C(=O)CSc2nc(C)cc(C)c21	-9%
CCc1ccc(-n2c(SCc3c(C)noc3C)nnc2-c2ccncc2)cc1	-8%
N#CCSc1nnc(COc2ccc3ccccc3c2)o1	-24%
C/C(=N\S(=O)(=O)c1ccc(C)cc1)N1CCN(S(=O)(=O)c2ccccc2)C1	-10%
CCc1cccc(OCCCCNCCO)c1	-8%
O=C(Nc1ccccn1)c1ccc(=O)[nH]n1	-8%
CC1=NN(Cc2ccccc2)C(=O)C1C(c1ccc(Cl)cc1)C(C#N)C#N (stereo not given)	28µM*
Cn1c(=O)c2c(nc(SCCN3CCOCC3)n2Cc2ccccc2Cl)n(C)c1=O	-12%
COc1ccc(CC(=O)Nc2c3c(nn2-c2cccc(C)c2C)CS(=O)C3)cc1OC (stereo not given)	-3%

# Molecules shown so far with a Cl atom:
compound	HPGD inh
NC(N)=N/N=C/c1ccc(OCc2ccc(Cl)cc2Cl)cc1	-25%
Cn1c(NC(=O)C[n+]2cc(-c3ccc(Cl)c(Cl)c3)n3c2CCC3)cc(=O)n(C)c1=O	2%
COc1c(C)cccc1C(=O)Nc1cc(Cl)ccc1N1CCOCC1	?
Cc1cc(C)nc(SCC(=O)Nc2ncc(C(F)(F)F)cc2Cl)n1	-6%
CCOC(=O)Cc1csc(NS(=O)(=O)c2ccc(Cl)cc2)n1	-10%
O=C1NC(=S)/C(=C\c2ccc(-c3ccccc3Cl)o2)S1	16µM*
CS(=O)(=O)N(CC(=O)NCC1CCCO1)c1ccc(Cl)c(Cl)c1 (stereo not given)	-12%
Cc1ccc(Cl)cc1N1CCN(C(=O)Cc2ccc(-n3c(=O)[nH]c4ccsc4c3=O)cc2)CC1	-8%
Cn1ncc(Cl)c1C(=O)NCc1ccc(Cl)cc1	-21%
Cc1cc(=O)n2[nH]c(-c3ccc(Cl)cc3)cc2n1	?
CC(=O)Nc1cccc(OCC(=O)NS(=O)(=O)c2ccc(Cl)cc2)c1	-6%
O=C(CSc1nnc2scc(-c3ccc(Cl)cc3)n12)NCc1ccc2c(c1)OCO2	-7%
CC1=NN(Cc2ccccc2)C(=O)C1C(c1ccc(Cl)cc1)C(C#N)C#N (stereo not given)	28µM*
Cn1c(=O)c2c(nc(SCCN3CCOCC3)n2Cc2ccccc2Cl)n(C)c1=O	-12%

# This is a subset. The share of hits here may be higher or lower than overall.
